KCNQ2 block – KCNQ2 potassium channel inhibitors, primary screen, cell-based, CHO-K1, FluxOR thallium flux, B-score (AID 2156); 310,000 tested, 1.1% active; B-score at 10 µM; 20 min; hits give low values; only compounds with negative scores are shown here; some inactives read as strong as hits; O88943;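 active = fluorescence ratio B-score at most minus 3 library SDs, with starting brightness B-score within 2 library SDs, cut at about -5.5 in these data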
Target sequence (O88943 whole entry, looked up): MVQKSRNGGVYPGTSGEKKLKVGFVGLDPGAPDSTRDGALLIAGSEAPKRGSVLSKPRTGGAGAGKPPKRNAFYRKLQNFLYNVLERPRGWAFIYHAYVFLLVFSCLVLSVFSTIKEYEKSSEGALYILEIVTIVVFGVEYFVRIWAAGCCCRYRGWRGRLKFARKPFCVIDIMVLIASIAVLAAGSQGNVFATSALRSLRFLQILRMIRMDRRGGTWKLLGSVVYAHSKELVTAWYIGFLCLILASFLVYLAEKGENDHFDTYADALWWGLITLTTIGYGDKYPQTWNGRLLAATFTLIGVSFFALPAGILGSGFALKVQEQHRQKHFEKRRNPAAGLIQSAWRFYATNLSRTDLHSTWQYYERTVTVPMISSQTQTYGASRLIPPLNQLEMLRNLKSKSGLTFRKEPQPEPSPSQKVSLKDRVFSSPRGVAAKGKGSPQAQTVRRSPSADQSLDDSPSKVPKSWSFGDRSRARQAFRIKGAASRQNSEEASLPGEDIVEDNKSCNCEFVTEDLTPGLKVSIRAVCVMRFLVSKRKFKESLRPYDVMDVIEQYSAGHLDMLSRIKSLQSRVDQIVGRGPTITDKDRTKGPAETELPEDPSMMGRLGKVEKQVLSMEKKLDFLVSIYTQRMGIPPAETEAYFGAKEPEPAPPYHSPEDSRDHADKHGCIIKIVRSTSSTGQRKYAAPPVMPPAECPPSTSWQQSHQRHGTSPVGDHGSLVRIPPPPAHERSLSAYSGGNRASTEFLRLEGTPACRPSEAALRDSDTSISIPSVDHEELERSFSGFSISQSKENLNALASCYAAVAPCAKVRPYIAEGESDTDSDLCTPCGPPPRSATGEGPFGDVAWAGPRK
KCNQ2 block baseline – second read-out of KCNQ2 block, no call of its own (marks repeat the call); B-score; measured here: initial fluorescence intensity artifact check;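 brightness before thallium and not channel activity; 0 = typical well and far values either way flag optical interference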
An asterisk follows results filed as active. A portion of the library; the hit share may differ from the screen's.

`NC(=O)CCC(=O)N1CCCC(C(=O)c2ccc(C(F)(F)F)cc2)C1` (stereo not given) gave KCNQ2 block inactive and KCNQ2 block baseline -0.53.
For COc1ccccc1NC(=O)N1CCN(C(=O)Nc2ccccc2OC)CC1 the results were KCNQ2 block inactive and KCNQ2 block baseline 1.5.
For CCOC(=O)CNC(=O)C1(/C=C/c2ccccc2)CC(=O)N1c1ccc(OC)cc1 (stereo not given) the results were KCNQ2 block inactive and KCNQ2 block baseline -2.2.
`CCOc1ccc(NC(=O)CN2CCN(CC(=O)Nc3ccc(OC)cc3)CC2)cc1` gave KCNQ2 block inactive and KCNQ2 block baseline -0.46.
`CCOC(=O)c1c(NC(=O)Cn2nnc(-c3ccccc3Cl)n2)sc(C)c1C` gave KCNQ2 block inactive and KCNQ2 block baseline 0.73.
Screening CCc1ccc(CNc2ccc3c(c2)ncn3C(C)(C)C)cc1 returned KCNQ2 block inactive and KCNQ2 block baseline -0.13.
For Cc1ccc(C(C)C)cc1OCC(=O)N1CCN(C(=O)c2ccco2)CC1 the results were KCNQ2 block inactive and KCNQ2 block baseline -1.4.
Screening CCOc1ccc(OCCC(=O)OCC(=O)NC2CC2)cc1 returned KCNQ2 block inactive and KCNQ2 block baseline -2.2.
For COc1cc(C=C(C(C)=O)C(C)=O)ccc1O the results were KCNQ2 block inactive and KCNQ2 block baseline -0.96.
CCOC(=O)CC(NC(=O)C(CC)c1ccccc1)c1ccccc1Cl (stereo not given) was read as KCNQ2 block inactive and KCNQ2 block baseline 0.43.
For CCS(=O)(=O)N1CCC(C(=O)Nc2cc(Cl)ccc2O)CC1 the results were KCNQ2 block inactive and KCNQ2 block baseline 1.4.
CN(C)c1ccc(/C=c2\sc3nc(-c4ccccc4)nn3c2=O)cc1 was read as KCNQ2 block inactive and KCNQ2 block baseline 2.8.

Structures shown so far with a Cl atom, in the order listed:
`CCOC(=O)c1c(NC(=O)Cn2nnc(-c3ccccc3Cl)n2)sc(C)c1C` gave KCNQ2 block inactive and KCNQ2 block baseline 0.73.
CCOC(=O)CC(NC(=O)C(CC)c1ccccc1)c1ccccc1Cl (stereo not given) was read as KCNQ2 block inactive and KCNQ2 block baseline 0.43.
For CCS(=O)(=O)N1CCC(C(=O)Nc2cc(Cl)ccc2O)CC1 the results were KCNQ2 block inactive and KCNQ2 block baseline 1.4.

Further entries follow:
For COC(=O)c1ccc(C)c(NC(=O)Cc2ccc([N+](=O)[O-])cc2)c1 the results were KCNQ2 block inactive and KCNQ2 block baseline 0.7.
Screening O=C(c1ccc(-c2ccccc2)cc1)N1CCC(C(=O)N2CCCC2)CC1 returned KCNQ2 block inactive and KCNQ2 block baseline -1.1.
For Cc1cccc(/C=N/n2c(C3CCCCC3)n[nH]c2=S)c1 the results were KCNQ2 block inactive and KCNQ2 block baseline 0.56.
COc1cc(N2C(=O)CSC23C(=O)Nc2ccccc23)cc(OC)c1OC (stereo not given) was read as KCNQ2 block inactive and KCNQ2 block baseline 1.3.
`CC(=O)n1cc([C@@H]2C=C(C(=O)O)O[C@H](OCc3ccc(CO)cc3)C2)c2ccccc21` gave KCNQ2 block inactive and KCNQ2 block baseline 1.5.
For O=C(NCc1ccc(Cl)cc1Cl)C(=O)N1CCCCC1 the results were KCNQ2 block inactive and KCNQ2 block baseline -1.5.
CSc1ccc(/C=C/C(=O)c2ccc(NC(=O)Cc3ccccc3)cc2)cc1 was read as KCNQ2 block inactive and KCNQ2 block baseline 1.
For Cc1cc(C(=O)CSc2nc3ccccc3c(=O)n2C)c(C)n1CC1CCCO1 (stereo not given) the results were KCNQ2 block inactive and KCNQ2 block baseline -1.2.
`O=C(NNS(=O)(=O)c1ccc(Br)cc1)c1ccccc1-n1cccc1` gave KCNQ2 block inactive and KCNQ2 block baseline -1.4.
`Cc1ccc2[nH]c3c(=O)n(CCN4CCOCC4)cnc3c2c1` gave KCNQ2 block inactive and KCNQ2 block baseline 3.
`CC(=O)N(/C=C1\SC(=S)N(c2ccccc2)C1=O)c1ccccc1` gave KCNQ2 block inactive and KCNQ2 block baseline -0.9.
Screening CCCCC(CC)C(=O)NCc1ccc(F)cc1 (stereo not given) returned KCNQ2 block inactive and KCNQ2 block baseline -0.39.
For CC(=O)Nc1ccc(NC(=O)[C@@H]2CCCN2S(=O)(=O)c2ccc3c(c2)OCCO3)cc1 the results were KCNQ2 block inactive and KCNQ2 block baseline 0.55.
O=C(CSc1nnc(CNc2ccccc2)o1)N1CCCc2ccccc21 was read as KCNQ2 block inactive and KCNQ2 block baseline 0.9.
For COc1cccc(OC)c1C(=O)NCCN1CCN(C(=O)c2c(OC)cccc2OC)CC1 the results were KCNQ2 block inactive and KCNQ2 block baseline 0.93.
CCOC(=O)C1CCCN(C(=O)C2CCCN(S(=O)(=O)c3ccc4c(c3)oc(=O)n4C)C2)C1 (stereo not given) was read as KCNQ2 block inactive and KCNQ2 block baseline -1.
Screening COc1ccc(CCNC(=O)C2C3CCC(C3)C2C(=O)O)cc1OC (stereo not given) returned KCNQ2 block inactive and KCNQ2 block baseline 1.2.
`Cc1ccc(NS(=O)(=O)c2ccc3c(c2)NC(=O)CO3)c(C)c1` gave KCNQ2 block inactive and KCNQ2 block baseline 1.9.
`Clc1ccc(-c2noc(COc3ccccc3)n2)cc1` gave KCNQ2 block inactive and KCNQ2 block baseline -1.8.
For Cc1ccc(N2CC(C(=O)Nc3nnc(SCc4ccccn4)s3)CC2=O)cc1 (stereo not given) the results were KCNQ2 block inactive and KCNQ2 block baseline 0.35.
CC1Cc2ccccc2N1C(=O)CN1C(=O)NC(C)(CCc2ccccc2)C1=O (stereo not given) was read as KCNQ2 block inactive and KCNQ2 block baseline 0.07.
Cc1ccc(NC(=O)CN2C(=S)NC(C)(C)CC2C)cc1Cl (stereo not given) was read as KCNQ2 block inactive and KCNQ2 block baseline -0.58.
Screening CCCCNC(=O)CCn1c(=O)c2ccccc2n(Cc2ccc(F)cc2)c1=O returned KCNQ2 block inactive and KCNQ2 block baseline -1.1.
`CN(C)C1=NC[C@H](Cc2ccccc2)N1CC1CCC(C(C)(C)C)CC1` (stereo not given in full) gave KCNQ2 block inactive and KCNQ2 block baseline 0.97.

The final 3 entries of the section before lead into the next:
Cc1ccc(NC(=O)CN2C(=S)NC(C)(C)CC2C)cc1Cl (stereo not given) was read as KCNQ2 block inactive and KCNQ2 block baseline -0.58.
Screening CCCCNC(=O)CCn1c(=O)c2ccccc2n(Cc2ccc(F)cc2)c1=O returned KCNQ2 block inactive and KCNQ2 block baseline -1.1.
`CN(C)C1=NC[C@H](Cc2ccccc2)N1CC1CCC(C(C)(C)C)CC1` (stereo not given in full) gave KCNQ2 block inactive and KCNQ2 block baseline 0.97.
COc1ccc(CCNC(=O)C(=O)NCC2OCCN2S(=O)(=O)c2ccc(F)cc2)cc1 (stereo not given) was read as KCNQ2 block inactive and KCNQ2 block baseline 0.53.
Screening CCOCCn1c(=O)c2c(nc3n2CC(C)CN3Cc2ccccc2)n(C)c1=O (stereo not given) returned KCNQ2 block inactive and KCNQ2 block baseline 1.2.
`N#Cc1c(N)n(-c2ccc(N)cc2)c2nc3ccccc3nc12` gave KCNQ2 block inactive and KCNQ2 block baseline 0.43.
For CC(C)(C)NC(=S)Nc1ccc(Nc2ccccc2)cc1 the results were KCNQ2 block inactive and KCNQ2 block baseline 0.68.
CCOc1ccccc1OC(C)C(=O)Nc1ccc(S(=O)(=O)N2CCCC2)cc1 (stereo not given) was read as KCNQ2 block inactive and KCNQ2 block baseline 0.85.
For COc1ccc(CNC(=O)c2c(C)cc(=O)oc2C)cc1 the results were KCNQ2 block inactive and KCNQ2 block baseline 2.1.
For Cc1ccc(S(=O)(=O)N2CCC(=O)N(CCOCc3cccc(C)c3)CC2)cc1 the results were KCNQ2 block inactive and KCNQ2 block baseline -0.03.
Cc1ccccc1N1CCN(S(=O)(=O)c2cccs2)CC1 was read as KCNQ2 block inactive and KCNQ2 block baseline 0.18.
Screening COc1ccc(-c2n[nH]c(=S)n2Cc2ccco2)cc1 returned KCNQ2 block inactive and KCNQ2 block baseline 0.4.
`CC1CN=C(N(C(=O)Nc2ccccc2)c2ccc(F)cc2)S1` (stereo not given) gave KCNQ2 block inactive and KCNQ2 block baseline 1.3.
`CCCCP(=O)(CCCC)Cc1ccccc1O` gave KCNQ2 block inactive and KCNQ2 block baseline 0.44.
Screening Cc1ccc(C)c(NC(=S)Nc2cccc3cnccc23)c1 returned KCNQ2 block inactive and KCNQ2 block baseline -0.32.
`O=C(O)c1cccc(S(=O)(=O)N(Cc2ccccc2)c2ccccc2Cl)c1` gave KCNQ2 block inactive and KCNQ2 block baseline -0.53.
COc1ccccc1N1CCN(C(=O)CSc2nc(C)c(C)c(=O)[nH]2)CC1 was read as KCNQ2 block inactive and KCNQ2 block baseline 4.8.
For Cc1cccc(NC(=O)NC2CCCc3ccccc32)c1 (stereo not given) the results were KCNQ2 block inactive and KCNQ2 block baseline 0.96.
O=C(c1cccc(S(=O)(=O)N2CCN(c3ccccc3)CC2)c1)N1CCN(c2ccccc2O)CC1 was read as KCNQ2 block inactive and KCNQ2 block baseline -0.48.
COCC(=O)OC/C(O)=C(\C#N)c1nc2ccccc2[nH]1 was read as KCNQ2 block inactive and KCNQ2 block baseline 2.6.
Screening C(=N\n1cnnc1)/c1cn(-c2cccs2)nc1-c1ccccc1 returned KCNQ2 block inactive and KCNQ2 block baseline 1.6.
Screening Cc1[nH]n(-c2ccccc2)c(=O)c1C(C[N+](=O)[O-])c1ccc(Br)cc1 (stereo not given) returned KCNQ2 block inactive and KCNQ2 block baseline -0.67.
COc1ccc(Cl)cc1NC(=O)c1oc(C)nc1C was read as KCNQ2 block inactive and KCNQ2 block baseline 0.65.
For CCCCn1c(NC(C)=O)c(C#N)c2nc3ccccc3nc21 the results were KCNQ2 block inactive and KCNQ2 block baseline 0.03.
CCCCSc1nc(C)[nH]c1[N+](=O)[O-] was read as KCNQ2 block inactive and KCNQ2 block baseline -0.87.
Screening CCOC(=O)c1c(C)nc2sc3c(=O)n(-c4ccc(C)cc4)cnc3c2c1-c1ccc(OC)cc1 returned KCNQ2 block inactive and KCNQ2 block baseline -0.35.
For COc1ccc(-c2nc(CS(=O)(=O)CC(=O)NCc3cccc(Br)c3)c(C)o2)cc1 the results were KCNQ2 block inactive and KCNQ2 block baseline 0.12.

Grouped by structure: those above containing a COOH group (three)
`CC(=O)n1cc([C@@H]2C=C(C(=O)O)O[C@H](OCc3ccc(CO)cc3)C2)c2ccccc21` gave KCNQ2 block inactive and KCNQ2 block baseline 1.5.
Screening COc1ccc(CCNC(=O)C2C3CCC(C3)C2C(=O)O)cc1OC (stereo not given) returned KCNQ2 block inactive and KCNQ2 block baseline 1.2.
`O=C(O)c1cccc(S(=O)(=O)N(Cc2ccccc2)c2ccccc2Cl)c1` gave KCNQ2 block inactive and KCNQ2 block baseline -0.53.

The results go on.
Screening O=C(Nc1cnccn1)c1ccc(F)cc1Cl returned KCNQ2 block inactive and KCNQ2 block baseline -2.8.
Cc1cccc(Cc2cnc(NC(=O)CN3C(=O)/C(=C/c4ccccc4)SC3=S)s2)c1 was read as KCNQ2 block inactive and KCNQ2 block baseline 0.27.
Screening CCc1c(-c2ccccc2)nc2nc(C)c(C)nn12 returned KCNQ2 block inactive and KCNQ2 block baseline 1.6.
For Cc1[nH]c2ccccc2c1CCN(Cc1cccs1)C(=S)Nc1ccccc1 the results were KCNQ2 block inactive and KCNQ2 block baseline 0.45.
`CC(=O)c1ccc(OCCCC(=O)OCc2nnc(-c3ccc(Cl)cc3)o2)cc1` gave KCNQ2 block inactive and KCNQ2 block baseline -0.12.
For COc1cc(C(=S)NC2CCCCC2)ccc1O the results were KCNQ2 block inactive and KCNQ2 block baseline 5.5.
Cc1nc2sc(C)c(C)c2c(=O)o1 was read as KCNQ2 block inactive and KCNQ2 block baseline 0.01.
`COc1cccc2cc(-c3nnc(SCC(=O)NCc4ccccc4)n3C)oc12` gave KCNQ2 block inactive and KCNQ2 block baseline -0.64.
Screening O=C1c2[nH]nc(-c3ccccc3O)c2C(c2cccc(O)c2)N1Cc1ccco1 (stereo not given) returned KCNQ2 block inactive and KCNQ2 block baseline -1.9.
O=C(Cn1cnc2cc([N+](=O)[O-])ccc2c1=O)N(Cc1ccccc1)C1CCS(=O)(=O)C1 (stereo not given) was read as KCNQ2 block inactive and KCNQ2 block baseline -0.93.
`CC1(C)Cc2c(C#N)c(N3CCOCC3)nc(Cc3ccccc3)c2CO1` gave KCNQ2 block inactive and KCNQ2 block baseline -0.49.
For COc1cc(/C=C2/C(=O)NN(c3cccc(Cl)c3)C2=O)cc(Br)c1O the results were KCNQ2 block inactive and KCNQ2 block baseline -3.1.
For COc1cccc(NC(=O)N2CCc3ccccc3C2)c1 the results were KCNQ2 block inactive and KCNQ2 block baseline -2.9.
CN(CC1CCCO1)S(=O)(=O)c1ccc(C(=O)NCc2ccccc2)cc1 (stereo not given) was read as KCNQ2 block inactive and KCNQ2 block baseline -1.5.
O=c1cc(CSc2ccc([N+](=O)[O-])cc2)nc2sccn12 was read as KCNQ2 block inactive and KCNQ2 block baseline 0.02.
`COCCCNC(=S)N1CCCN(c2nc3c(C)c(C)ccc3cc2C#N)CC1` gave KCNQ2 block inactive and KCNQ2 block baseline -1.4.
Screening Cc1cc(NC(=O)CN2CCCCC2C)nc2c1c(=O)oc1ccccc12 (stereo not given) returned KCNQ2 block inactive and KCNQ2 block baseline -0.04.
For Cc1cc2cc(CN(Cc3cccs3)C(=S)NCc3ccco3)c(=O)[nH]c2cc1C the results were KCNQ2 block inactive and KCNQ2 block baseline -1.7.
`CCc1nnc(NS(=O)(=O)c2ccc(NC(=O)CCC(=O)OC)cc2)s1` gave KCNQ2 block inactive and KCNQ2 block baseline 2.
Screening COc1ccc(Cc2noc(CN3CCCC(OCc4ccccn4)C3)n2)cc1OC (stereo not given) returned KCNQ2 block inactive and KCNQ2 block baseline -1.7.
Screening Clc1ccc(-n2ncc3c(NCC4CCCO4)ncnc32)cc1 (stereo not given) returned KCNQ2 block inactive and KCNQ2 block baseline 1.3.
Screening Fc1ccc(C(CCNCc2cccs2)c2ccco2)cc1 (stereo not given) returned KCNQ2 block inactive and KCNQ2 block baseline 0.62.
Screening Fc1cc(Br)ccc1NC(=S)Nc1cccnc1 returned KCNQ2 block inactive and KCNQ2 block baseline 0.5.

Assay outcomes from PubChem.
